Bioassay records from PubChem BioAssay.
GLA inh pH 4.5: inhibitors of human alpha-galactosidase A at pH 4.5; purified enzyme, 4-MU-alpha-Gal fluorescence, pH 4.5; activity change, negative = inhibition, % at 105 µM; AID 1467; P06280; 230,000 tested, under 10 active; inconclusive = small, poorly fitted or top-dose-only inhibition, or a rising curve; inactive = flat fitted curve, though single readings scatter; no compound was filed as active;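 note: 0% = full activity with enzyme and -100% = basal without enzyme; dose as in the result columns while the protocol names 77 µM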
Rango-impB inh: inhibitors of Rango-importin beta complex formation; Q14974; Rango CFP/YFP FRET sensor + importin beta, 45 min; Potency, µM (titrated, usually from 92.2 µM), for inactives: at the highest dose inhibition of complex formation; hit rate 0.031% among 340,000; AID 540263; active = rising FRET ratio curve, often small or poorly fitted; inconclusive = mostly compound fluorescence or quenching in the first reads; inactive = flat curves in all reads;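 note: potency is the fitted concentration of half-maximal effect; 0% = DMSO wells and 100% = buffer wells lacking importin beta; nearly all actives have a fitted effect of over 15% in size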
Target sequence (Q14974 whole entry, looked up): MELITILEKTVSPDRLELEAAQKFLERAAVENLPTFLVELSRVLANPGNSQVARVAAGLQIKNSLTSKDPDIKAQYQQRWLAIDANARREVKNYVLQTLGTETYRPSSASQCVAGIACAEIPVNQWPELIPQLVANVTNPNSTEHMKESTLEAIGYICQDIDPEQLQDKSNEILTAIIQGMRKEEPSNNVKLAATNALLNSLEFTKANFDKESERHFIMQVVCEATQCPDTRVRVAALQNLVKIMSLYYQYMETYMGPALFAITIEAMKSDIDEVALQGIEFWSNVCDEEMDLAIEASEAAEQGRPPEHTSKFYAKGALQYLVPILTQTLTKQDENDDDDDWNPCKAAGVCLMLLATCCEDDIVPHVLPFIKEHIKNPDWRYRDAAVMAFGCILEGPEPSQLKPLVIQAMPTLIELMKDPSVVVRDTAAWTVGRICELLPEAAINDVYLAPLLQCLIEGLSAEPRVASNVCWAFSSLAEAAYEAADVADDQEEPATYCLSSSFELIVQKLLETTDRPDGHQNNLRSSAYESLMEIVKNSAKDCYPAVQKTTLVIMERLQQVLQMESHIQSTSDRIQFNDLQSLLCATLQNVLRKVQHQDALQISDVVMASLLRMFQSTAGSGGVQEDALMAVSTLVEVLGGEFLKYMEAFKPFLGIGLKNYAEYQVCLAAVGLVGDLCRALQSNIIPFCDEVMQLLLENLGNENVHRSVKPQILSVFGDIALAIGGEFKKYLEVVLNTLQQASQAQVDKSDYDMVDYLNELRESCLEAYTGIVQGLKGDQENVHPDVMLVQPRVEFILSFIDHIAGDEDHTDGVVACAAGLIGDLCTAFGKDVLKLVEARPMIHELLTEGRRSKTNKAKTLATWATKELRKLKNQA
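FRET biosensor (snurportin 1 IBB flanked by EYFP and cerulean), 50 nM, with compound 5 min, then 0.125 microM importin beta in PBS, 1 mM DTT, 0.02% Tween-20, 0.1% BSA. CFP/YFP ratio read after 45 min at room temperature; pre-read flags interference.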
miR-21 reporter: miR-21 reporter, rising signal | AID 2288 | Potency, µM (series often up to 38.3 µM), inactives show at the top dose reporter change, positive = more light | 340,000 tested, under 10 active | HeLa miR-21 FLuc reporter, luciferase, 48 h; active = well fitted rising curve with a large enough effect; inconclusive = small, poorly fitted or top-dose-only effect; inactive = no such curve, though single readings can be large or run the other way;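 note: % of control where 0% means no effect; miR-21 action dims this reporter so a rising signal means less miR-21 action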
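HeLa cells endogenously expressing miR-21, stably carrying CMV-driven firefly luciferase with a downstream miR-21 binding site, 2000 cells/well. Titrations up to approximately 40 uM, 48 hours; luciferase luminescence read.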
Rango dissoc inh: inhibitors of RanGTP-induced Rango-importin beta complex dissociation; hit rate 0.071% among 340,000; Biochemical FRET Rango-importin beta, RanGTP-induced dissociation; Potency, µM (doses to about 46.1 µM), for the others: at the top dose activity change, negative = inhibition; active means falling FRET ratio curve, often poorly fitted, with flat reads before Ran was added; inconclusive means other falling curves, or compound fluorescence or quenching; inactive means flat or rising ratio curve;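 note: potency is the fitted concentration of half-maximal effect; % of control where 0% means no effect; nearly all actives have a fitted effect of over 45% in size; -100% = wells without RanGTP and RCC1; the record marks most hits as doubtful in a second field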
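FRET read at 45 min, room temperature: inhibitors block the CFP/YFP signal rise when RanGTP (0.6 uM Ran, 2 mM GTP, 0.2 uM RCC1) frees Rango (0.1 uM) from importin beta (0.25 uM). Pre-read after 5 min compound exposure flags interference.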
An asterisk follows results filed as active; ? = inconclusive; nt = not tested or not shown; & = joins results of further samples.

Below each compound: Rango-impB inh, GLA inh pH 4.5, Rango dissoc inh, miR-21 reporter
> COc1ccc(Cc2nnnn2CC(=O)O)cc1
  4.8%, -8, 6%, -2%
> Cc1ccc(C2=NN(C(=O)CN3CCN(C4CCS(=O)(=O)C4)CC3)C(c3ccco3)C2)cc1 (stereo not given)
  -2.4%, nt, 0%, nt
> CCN(CC)S(=O)(=O)c1cccc(-c2csc(C)n2)c1
  -0.1%, -1, -14%, -3%
> O=C(O)c1ccc(N2C(=O)c3ccc(C(=O)c4cccc([N+](=O)[O-])c4)cc3C2=O)cc1
  0.3%, -9, -6%, 0%
> NC(=O)Nc1cc(Cl)ccc1Cl
  0.7%, -4, 9%, -1%
> O=C(NCc1cccc(CNC(=O)C(=O)NCC2CCCO2)c1)C(=O)NCC1CCCO1 (stereo not given)
  1.0%, 9, -6%, 2%
> COc1cc2c(cc1OC)C(C(N)=O)NCC2 (stereo not given)
  -5.2%, nt, 0%, nt
> c1ccc(N2N=C(c3cccs3)CC2c2ccco2)cc1 (stereo not given)
  ?, ?, ?, -15%
> C/C(CCC(C)C)=N\NS(=O)(=O)c1ccc(C)c([N+](=O)[O-])c1
  -1.3%, 3, 10%, -6%
> CCOC(=O)[C@H]1[C@H]2COc3ccc(OC)cc3[C@@H]2N2C(=O)c3ccccc3NC(=O)[C@@]12C
  0.1%, nt, 0%, nt
> O=Cc1cc(Br)c(OC(=O)N2CCOCC2)c(Br)c1
  -5.3%, nt, 0%, -1%
> O=C(Oc1ccc(Br)cc1)c1cccc(S(=O)(=O)N2CCOCC2)c1
  -4.1%, nt, 2%, -2%
> O=C1c2ccccc2C(=O)C1c1ccccc1F
  1.3%, nt, 7%, 2%
> O=C(Cn1c(=O)oc2ccc(Cl)cc21)Nc1ccon1
  1.6%, nt, 21%, 0%
> CNC(=O)NC(=O)CSc1cccc(C(F)(F)F)c1
  3.3%, -7, -17%, -8%
> Cc1nc2ccccc2c2oc(C(=O)N3CCC(C)CC3)cc12
  -1.6%, nt, 7%, -14%
> O=C(c1cc(F)c(F)cc1Cl)N1CCOCC1
  -1.2%, 4, -1%, 0%
> COc1ccc(OC2C(=O)N(c3ccc(C)c(C)c3)C2c2ccc(OC)c(OC)c2)cc1 (stereo not given)
  -3.4%, -5, 8%, 4%
> O=C(OCC(=O)N1CCCc2ccccc21)c1ccc(C(F)(F)F)cc1
  2.4%, nt, 33%, nt
> O=C(CCC1CCCC1)NCc1ccccn1
  -4.3%, 4, -13%, -13%
> CCOC(=O)c1ccc(N/C(=N/S(=O)(=O)c2ccccc2)c2ccccc2)cc1
  -5.2%, -3, -8%, -17%
> CCOc1ccc2nc(SCC(=O)Nc3cc4c(cc3C(C)=O)OCO4)[nH]c2c1
  0.3%, -11, 11%, 1%
> Cc1ccc2nc3c(c(Nc4ccccc4)c2c1)CCC3
  5.0%, -9, 1%, 17%
> COc1ccc(COCC(O)CN2CCCCC2)cc1OC (stereo not given)
  -0.2%, nt, 0%, -1%
> CN1C(=O)C(C)(C)c2cc(S(=O)(=O)N3CCCC3C(=O)NCc3ccc(F)cc3)ccc21 (stereo not given)
  0.9%, nt, -3%, 0%
> Cc1cccc(NC(=O)CSc2cn[nH]n2)c1
  -0.7%, nt, -3%, 1%
> CCOC(=O)N1C2C=CC(C2)N1C(=O)OCC
  -0.7%, nt, 1%, nt
> COc1ccc(C(=O)c2c(C(F)(F)F)oc3c2C(=O)c2ccccc2C3=O)cc1OC
  -3.6%, -8, -10%, 7%
> Cn1c(=O)c2c(ncn2CC(=O)N2CCN(c3ccccc3F)CC2)n(C)c1=O
  -0.3%, 3, 20%, -2%
> COc1ccccc1NC(=O)CN1CCN(c2ccc(Cl)cc2)CC1
  -3.3%, -5, -2%, -2%
> Cc1ccc(-c2nc3ccccc3o2)cc1NC(=O)c1ccc2c(c1)OCO2
  -2.7%, 4, 4%, -56%
> COc1cccc2sc3ccc(C#Cc4ccc(N)cc4)cc3c(=O)c12
  -0.1%, nt, 2%, -36%
> CC(=O)Oc1ccccc1N(C(C)=O)S(=O)(=O)c1cccc([N+](=O)[O-])c1
  -2.1%, 6, 0%, -2%
> Cc1c(C(=O)OCCOC(C)C)[nH]c2c1C(=O)CC(C)(C)C2
  0.3%, 7, -9%, -29%
> CCNc1nc(NC(C)C)nc(N(n2cnnc2)S(=O)(=O)c2ccc(C)cc2)n1
  -1.0%, -4, -5%, -14%
> N#Cc1ccc2c(c1)nc1ccccn12
  ?, ?, 7%, -17%
> N#CCCCCn1ccc(NC(=O)c2ccc(Cl)cc2O)n1
  ?, nt, -3%, nt
> COc1ccc(NC(=O)N2CCc3cc(OC)c(OC)cc3C2)cc1
  4.5%, nt, 4%, 13%
> C=CCN(C(=O)c1csnn1)C(C(=O)NC1CCCC1)c1ccc(Cl)cc1 (stereo not given)
  -0.9%, nt, 4%, -1%
> O=C(Nc1cccc(-n2cccn2)c1)C1CCCN(Cc2ccccc2F)C1 (stereo not given)
  -0.3%, nt, -20%, -1%
> CCC(Cc1ccccc1)NS(=O)(=O)c1ccc2c(c1)NC(=O)CS2 (stereo not given)
  0.6%, nt, 12%, 9%
> CN(C)CCCN(C(=O)CCOc1ccccc1)c1nc2ccc(F)cc2s1
  6.0%, -6, 3%, ?
> COC(=O)c1cc(C(=O)N2CCN(c3cccc(C)c3C)CC2)cc([N+](=O)[O-])c1
  -0.6%, 2, 2%, 24%
> O=C(CCC(=O)N1CCCc2ccccc21)N1CCN(S(=O)(=O)c2ccccc2)CC1
  -1.3%, -14, -9%, -2%
> Cc1ccc(CN2CC(C(=O)N3CC=C(c4ccccc4)CC3)CC2=O)cc1 (stereo not given)
  -0.2%, nt, 6%, 7%
> N/C(=N\OC(=O)Cc1ccccc1[N+](=O)[O-])c1ccc(Br)cc1
  0.8%, 1, 5%, -21%
> CC(NC(=O)C1CCCC1)c1ccccc1 (stereo not given)
  1.0%, nt, -14%, nt
> COc1ccc(NC(=O)Nc2ccccc2SC)cc1
  0.6%, -8, 8%, -49%
> CC1CCC(NC(=O)CSc2nnc(-c3cccnc3)o2)CC1 (stereo not given)
  -0.5%, nt, 40%, nt
> O=C(OCC(=O)N1CCc2ccccc2C1)c1ccc(N2CCOCC2)c([N+](=O)[O-])c1
  0.9%, -14, -24%, -4%

Continued (three carried over from the part before).
Below each compound: Rango-impB inh, GLA inh pH 4.5, Rango dissoc inh, miR-21 reporter
> COc1ccc(NC(=O)Nc2ccccc2SC)cc1
  0.6%, -8, 8%, -49%
> CC1CCC(NC(=O)CSc2nnc(-c3cccnc3)o2)CC1 (stereo not given)
  -0.5%, nt, 40%, nt
> O=C(OCC(=O)N1CCc2ccccc2C1)c1ccc(N2CCOCC2)c([N+](=O)[O-])c1
  0.9%, -14, -24%, -4%
> Brc1ccccc1Cn1c(-c2cncs2)nc2ccccc21
  -0.5%, -5, 13%, -16%
> Cc1onc(-c2c(Cl)cccc2Cl)c1C(=O)N=C(N)N1CCCC1
  3.3%, -4, -6%, 13%
> CCOC(=O)C(NC(=O)c1ccccc1Cl)(Nc1sc2c(c1C(N)=O)CCC2)C(F)(F)F (stereo not given)
  ?, -5, -18%, -7%
> COc1ccc(/C=C(\NC(=O)c2ccco2)C(=O)NCCc2nc3ccccc3[nH]2)cc1
  -0.2%, -1, -1%, -8%
> COC(=O)c1cn(Cc2cc(OC)ccc2OC)cc(F)c1=O
  -11%, nt, -13%, -1%
> CCC1(CC)Cc2ccccc2C2=C(C(=O)N3CCCCC3)C(=O)C(=O)N21
  -1.2%, 6, -8%, -6%
> CC(=O)Nc1ccc(N2C(=O)CSC2c2ccc([N+](=O)[O-])cc2)cc1 (stereo not given)
  0.1%, nt, 6%, 0%
> CCC(C)[C@H](NC(=O)[C@@H]1Cc2ccccc2CN1C(=O)OC(C)(C)C)C(=O)NCC1CCC(C(=O)O)CC1 (stereo not given in full)
  -0.2%, -10, 2%, 3%
> Cc1cc(C(=O)Nc2ccc3c(c2)OCCO3)c(C)o1
  -1.1%, 1, 0%, -46%
> O=C(O)c1ccccc1OCCOc1ccccc1
  6.4%, nt, 2%, -13%
> Cc1nn(C)cc1CNC(=O)Nc1ccc(Cl)c(Cl)c1
  0.8%, -24, -2%, -43%
> C=CC[C@@H](CC(=O)N[C@@H](CO)Cc1ccccc1)C(=O)NC[C@@H](OC(=O)[C@@H](CC=C)CC(=O)OC(C)(C)C)c1ccccc1
  -2.6%, nt, 15%, nt
> COC(=O)c1ccc(-c2ccc([C@H]3[C@H]4C=CC[C@@H](C)[C@@H]4C(=O)N3Cc3ccccc3)c(F)c2)cc1
  -1.0%, -2, -3%, 0%
> Nc1ccc(N2CCCCC2)cc1N1CCCCC1
  0.3%, -1, 35%, 30%
> O=c1cc(NCc2ccccc2)nc2ccccn12
  0.1%, 3, -6%, -36%
> COc1cc(/C=C2/C(=O)NN(c3ccc(F)cc3)C2=O)cc([N+](=O)[O-])c1O
  -2.8%, -1, 14%, -11%
> CCCn1cnc2c(SCc3ccccc3Cl)nc(N)nc21
  -0.2%, nt, 7%, nt
> CC(C)CC(=O)C(=O)O
  -2.9%&0.4%, nt, -12%&2%, nt
> CCOC(=O)C(C)/C(C)=N/NC(=O)c1cc2ccccc2cc1O (stereo not given)
  ?, 4, ?, -3%
> Cc1ccccc1NC(=O)CCSc1nnnn1-c1ccccc1
  -2.2%, 4, 2%, -2%
> Cc1c(Br)c(-c2n[nH]c(=S)n2Cc2ccco2)nn1C
  2.2%, 2, -18%, -13%
> CCOC(=O)c1cnc(-n2nc(C)cc2C)nc1Nc1ccccc1OC
  nt, 6, nt, -4%
> O=C(NCCCO)c1ccc(CSc2nc3ccccc3c(=O)[nH]2)cc1
  -0.3%, 4, ?, -1%
> COc1ccc(CN2CCN(Cc3ccc(OC)c(OC)c3OC)CC2)cc1
  4.1%, nt, 0%, 0%
> Cc1cccc2c1N(CCOc1ccc(C(C)(C)C)cc1)C(=O)C2=O
  -1.7%, 2, 1%, -2%
> Cc1nc2scc(C)n2c(=O)c1S(=O)(=O)NCC1CCN(Cc2ccc(Cl)cc2)CC1
  8.6%, nt, 16%, 3%
> COc1ccccc1Nc1ccc([N+](=O)[O-])cc1N
  6.2%, -6, 17%, 3%
> O=C(O)C1CCCCC1C(=O)N1CCN(S(=O)(=O)c2ccc(F)cc2)CC1 (stereo not given)
  3.5%, nt, 13%, 1%
> O=C(O)C1C2CCC(C2)C1C(=O)N1CCCC1 (stereo not given)
  0.5%, nt, 11%, 3%
> CCCSc1ccc([C@H]2N[C@@](C)(C(=O)OC)[C@H]3C(=O)N(C)C(=O)[C@@H]23)cc1
  ?, nt, -5%, nt
> O=C(O)C1C2C=CC(C2)C1C(=O)NCCCn1ccnc1 (stereo not given)
  5.6%, 8, 2%, -2%
> CCc1cccc(NC(=O)CCCn2nc(C)c3c(C)n(-c4ccccc4)nc3c2=O)c1
  -1.3%, nt, 5%, 2%
> O=C(CNC(=O)c1ccc(N2C(=O)c3ccccc3C2=O)cc1)OCC(=O)c1ccc(Cl)cc1
  -0.1%, 3, -16%, -6%
> O=C(CNC(=O)c1ccc(Cl)cc1Cl)OCCOc1ccccc1
  -1.3%, nt, 3%, nt
> CCN(CC)CCNC(=O)Cc1c(C(=O)O)n(CC)c2ccccc12
  0.4%, 7, 2%, -3%
> O=C(O)CCc1nn2c3ccccc3nc2n(-c2ccccc2)c1=O
  3.7%, -2, 4%, -7%
> Cc1ccc(S(=O)(=O)N2CCOCC2)cc1NS(=O)(=O)c1ccc(F)c(F)c1
  2.6%, nt, 22%, nt
> CCOc1ccc(NC2=CC(=O)CC(c3ccco3)C2)cc1 (stereo not given)
  1.6%, 7, -13%, -15%
> O=S(=O)(/C=C/c1ccccc1)c1ccccc1
  2.3%, 2, 1%, 1%
> OCCCc1cn(CC2CCCCC2)nn1
  0.6%, nt, -15%, -8%
> COc1ccc(CN(Cc2ccc(C(=O)O)cc2)C(=S)Nc2cccc(C)c2)cc1OC
  -0.2%, -5, -7%, -2%
> CCc1ccc(CNCCNCC(C)O)cc1 (stereo not given)
  0.2%, -1, -7%, -1%

Not all compounds are listed; count on the stated rates, not on these rows.
